# High-throughput results from PubChem BioAssay.
# Env fusion inh: inhibitors of HIV Env-mediated cell fusion | HeLa-JRFL Env/CEM21 cell fusion, luciferase | inhibition, % at 12.3 µM | 1.1% of 360,000 active | AID 651610;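 active = mean replicate inhibition score of at least 50 and every replicate individually at or above 50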;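 note: 0% = plate neutral controls and 100% = maraviroc near 300 nM; one replicate is shown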
# Rce1 inh: inhibitors of yeast Ras-converting enzyme; yeast membranes, quenched prenylated peptide cleavage fluorescence; 0.27% of 290,000 active; calls only; AID 2563; Q03530;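 active = fall in fluorescence gain of 50% or more versus controls, with final raw signal at or below 3038400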;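 note: plate controls were neutral control wells for no effect and wells lacking membranes for full effect; tested at 10 µM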
# Target sequence (Q03530 whole entry, looked up): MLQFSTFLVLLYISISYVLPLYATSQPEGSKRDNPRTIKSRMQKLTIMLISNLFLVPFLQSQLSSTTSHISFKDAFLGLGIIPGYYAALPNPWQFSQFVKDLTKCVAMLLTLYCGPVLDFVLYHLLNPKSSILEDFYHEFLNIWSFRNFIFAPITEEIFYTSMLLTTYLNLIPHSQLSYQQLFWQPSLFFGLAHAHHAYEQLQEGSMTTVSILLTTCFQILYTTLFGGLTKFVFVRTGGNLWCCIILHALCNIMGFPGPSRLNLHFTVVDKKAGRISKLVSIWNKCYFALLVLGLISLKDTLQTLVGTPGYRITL
# CSC inhib: blocks cancer stem cells; 1.1% of 300,000 active; cancer stem cell-like cells viability, luminescence; inhibition, % at 7.5 µM;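 active = mean at 75% or more and at least half the replicates too; tested in HMLE shEcad cells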;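 note: 0% = median of negative and 100% = median of positive control wells; the first replicate is given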
# Yeast UUG start: alters start codon recognition fidelity in yeast; 0.13% of 350,000 active; AID 602363; activity score, % at 18.7 µM; S. cerevisiae UUG-firefly luciferase reporter, luminescence/redox ratio;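 active = replicate mean at a twofold rise or more, about +100% in these data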;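 note: firefly luciferase made from a UUG start codon reports start codon fidelity; reporter light over untreated wells divided by growth signal over untreated wells; some hits fall short of that in this replicate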
# eIF4H FP inh: inhibitors of RNA binding by human eIF4H; eIF4H fluorescence polarization binding assay; AID 2012; inhibition, % at 35 µM; Q15056; 0.94% of 290,000 active;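 active = 50% or more with normal probe brightness, or confirmed in later tests; about a fifth of its hits are not listed in these tables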;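 note: calls also rest on retests at 20 µM and on dose response follow-up; 0% = protein and probe with vehicle and 100% = probe without protein; strong numbers were not always called active; many hits fall short of the cut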
# PABP FP inh: blocks human PABP binding to poly(A) RNA | fluorescence polarization | inhibition, % at 35 µM | 1% of 290,000 active | AID 2014;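 active = 50% or more with normal probe brightness, or confirmed in later tests; about a fifth of its hits are not listed in these tables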;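 note: calls also rest on retests at 20 µM and on dose response follow-up; controls were probe without protein and protein plus probe with vehicle; some compounds called inactive have numbers as strong as hits; many hits fall short of the cut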
# MT1-MMP act inh: blocks activation of human MT1-MMP | P50281 | HT1080 RFP-PRO-GFP cells, GFP/RFP ratio fluorescence, overnight; percent of plate control window, DMSO zero | GFP/RFP ratio change, % at 20 µM | 0.061% of 360,000 active | AID 651647;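 active = GFP/RFP ratio change of at least 30% with cell ATP level not reduced by more than half and red fluorescence within 50% of control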; note: strong numbers were not always called active
#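 Compound: 20 µM single dose, 1% DMSO / System: HT1080 RFP-PRO-GFP cells / Controls: DMSO and RFP-L50D-GFP cell wells / Read-out basis: GFP/RFP fluorescence ratio / Schedule: overnight compound exposure at 37 °C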
# eIF4H FP inh retest: also measured in eIF4H FP inh; calls as there; inhibition, %; compound at 20 µM; confirmation average;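 mean of two retest wells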
# PABP FP inh retest: further read-out of PABP FP inh, marked with its call; inhibition, %; compound at 20 µM; confirmation repeats;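 mean of two retest wells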
# MT1-MMP act inh RFP: recorded beside MT1-MMP act inh, whose call it bears; RFP signal change, %; measured here: RFP expression control read;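 0 = vehicle wells; hits needed this value within 50% of zero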
# Numbers without * were called inactive; i = inactive; nt = no result given.
SMILES,Env fusion inh,Rce1 inh,CSC inhib,Yeast UUG start,eIF4H FP inh,PABP FP inh,MT1-MMP act inh,MT1-MMP act inh RFP,others
COc1cccc(C(=O)NCC(c2cccs2)N2CCOCC2)c1 (centres undefined),nt,nt,-12,-17,nt,nt,1,-1,
CCOc1ccc(/C=C2\SC(=S)N(CCC(=O)Nc3ccc(C(=O)O)cc3)C2=O)cc1,-13,i,1,-26,82,9,1,-4,eIF4H FP inh retest=13;PABP FP inh retest=12
COc1cccc(CNC2CCCCCCC2)c1OC,-23,i,-5,-6,16,5,-3,5,
O=C(CN1CCOCC1)N/N=C/c1ccc(-c2ccc(Br)cc2)o1,-19,i,5,nt,-14,21,-1,4,
O=C(c1ccc(S(=O)(=O)N2CCCCC2)cc1)N1CCN(c2ccccc2F)CC1,-3,i,9,1,-1,9,0,-4,
O=C(Nc1ccc2c(c1)CCC2)c1cc(F)cc(F)c1,-64,nt,7,-16,nt,nt,-4,-2,
O=C(OCC(=O)N1CCOCC1)c1ccc2c(c1)OCCO2,-15,i,-8,-19,8,7,2,5,
Cn1c(SCC(=O)NNC(=O)c2ccccc2Br)nnc1C(F)(F)F,-2,nt,nt,-3,nt,nt,6,2,
COC(=O)c1cccc(C23CC4(C2)[C@H](CN(Cc2cccnc2)[C@@H]4c2ccccc2)C3c2ccccc2)c1 (some centres undefined),27,i,23,-13,-15,-19,-1,-6,
CCOc1ccc(-n2c(SCC(=O)Nc3ccc(OC)cc3)nc3c(c2=O)SCC3)cc1,nt,i,-9,nt,-4,-5,2,4,
O=C(Cn1ncc2c(=O)oc3ccccc3c21)NCCN1CCN(c2ccccc2F)CC1,13,i,2,-16,-4,-24,-2,2,
CN(Cc1ccccc1)S(=O)(=O)c1nnc(NC(=O)c2ccc(F)cc2)s1,-9,i,-27,-14,-14,-15,-1,-8,
CC(=O)C1=C(c2ccccc2)OC(N)=C(C#N)C1c1ccccc1F (centres undefined),1,i,3,nt,-14,3,-4,4,
CSc1ccc(C(=O)C2CCCN(C(=O)c3cc(C)n(C)n3)C2)cc1 (centres undefined),8,i,-5,-10,2,-11,-2,-1,
CCC(C)NC(=O)CN1C(=O)C(CC)Sc2ccccc21 (centres undefined),-1,i,-6,-18,-4,0,-1,-1,
C=CCNC(=O)CN(c1ccc(F)c(Cl)c1)S(C)(=O)=O,nt,i,-1,-19,-6,6,3,-4,
OC[C@@H]1CN(Cc2ccc(Cl)cc2)C[C@H](n2cnc3c(NC4CC4)ncnc32)O1,16,nt,nt,-14,nt,nt,2,-3,
COC(=O)C1C(=O)c2c([nH]c(C(=O)OC3CCCCCC3)c2C)CC1C (centres undefined),-33,i,35,-7,0,-9,-10,-21,
OC(CN1CCN(Cc2ccc3c(c2)OCO3)CC1)c1c[nH]c2ccccc12 (centres undefined),nt,i,nt,-13,-3,-8,7,-2,
COc1cc(C)ccc1NC(=O)Cc1csc(NC(=O)Nc2ccccc2OC)n1,13,i,-5,-10,nt,nt,0,-4,
COc1ccccc1N1CCN(C(c2cc3cc(C)ccc3[nH]c2=O)c2nnnn2C2CCCC2)CC1 (centres undefined),10,i,-6,-3,-12,16,-8,-3,
O=C(NCc1ccco1)c1ccccc1F,-20,i,-11,-23,31,21,0,-1,
O=[N+]([O-])c1cc([N+](=O)[O-])c(Oc2c(Cl)cccc2Cl)cc1NN1CCCCC1,16,i,17,-15,0,10,-1,-1,
Cc1ccc(S(=O)(=O)N(CC(=O)N=Nc2c(O)[nH]c3ccccc23)c2ccc(C)c(C)c2)cc1,-89,nt,15,-14,5,-10,-19,-22,
COc1ccc(N2CCN(C(=O)c3cccn4c(=O)c5ccccc5nc34)CC2)cc1,24,i,5,nt,-4,-8,-6,-6,
CC(C)NC(=O)C1CCN(C2CCN(Cc3nc(C(C)C)cs3)CC2)CC1,8,i,-9,nt,-4,2,2,4,
COCCNC(=O)c1ccc(CSc2nc3ccccc3s2)cc1,-33,i,13,-18,-1,4,2,-13,
CCC1CCCCN1CCCNC(=O)c1ccc2c(c1)NC(=O)CS2 (centres undefined),-5,i,-6,-24,nt,nt,-1,3,
CCN(CC)CCCNC(=O)CSc1nc2c(c(C(F)(F)F)n1)CCc1ccccc1-2,25,i,24,nt,-12,14,1,-3,
COC(=O)c1ccc(CSc2ccc3nnc(-c4ccc(OC)cc4)n3n2)o1,nt,i,-9,nt,-2,8,nt,nt,
Brc1ccc2nc(N3CCCC3)sc2c1,-91,i,2,-18,-7,-9,-2,-6,
C=CCC(=O)OCCCCCCOc1ccc(C(=O)O)cc1,-9,i,-16,-13,-1,-4,14,8,
COCCn1nnnc1C(c1cc2ccc(OC)cc2[nH]c1=O)N1CCN(C2CCCCC2)CC1 (centres undefined),nt,i,10,-1,2,4,-1,2,
CSc1nnnn1-c1c(C)cccc1C,2,i,6,nt,4,4,0,-2,
CCN(CC)S(=O)(=O)c1cccc(C(=O)N[C@H](C(=O)OCC(N)=O)C(C)C)c1,-8,i,-3,-13,11,7,-7,0,
O=C(Nc1cccnc1)c1sc(Nc2ccccc2F)nc1-c1ccccc1,-47,i,-5,nt,-11,25,3,0,
COc1ccc(NC(=O)CSc2nc(O)cc(=O)n2C)cc1,nt,i,-10,3,-8,9,4,12,
COc1ccc([N+](=O)[O-])cc1NCc1ccco1,-4,i,8,-5,-1,-1,5,2,
COc1cc(/C=N/NC(=O)c2ccc3c(c2)OCO3)ccc1O,-14,i,-4,-19,-4,-4,0,3,
Cn1cccc1CC(=O)N/N=C/c1cccc([N+](=O)[O-])c1,19,i,-10,nt,-2,17,-1,0,
CC1(C)CC2CC(C)(CN2C(=O)Cc2ccccc2)C1 (centres undefined),-37,nt,-13,-18,-4,-2,0,-2,
Fc1ccccc1Nc1nc(-c2ccncc2)nc2ccccc12,31,nt,10,nt,-6,13,-1,-3,
O=C(NNC(=S)NC(=O)c1ccccc1[N+](=O)[O-])c1ccc(Cl)cc1Cl,-11,i,-16,nt,8,1,8,4,
O=C(NNc1c(Cl)cc(Cl)cc1Cl)c1cccc([N+](=O)[O-])c1,nt,i,21,-34,8,-2,2,-4,
Cc1ccc(N=CC2=C(O)CC(C)(C)CC2=O)nc1,nt,i,6,7,-4,-5,4,4,
CCOC(=O)c1sc(/N=C/c2c(O)ccc3ccccc23)cc1C,20,i,-6,nt,12,9,-5,0,
CCCNC(=O)c1cc(C2CCCCN2S(=O)(=O)c2ccccc2)on1 (centres undefined),-8,nt,nt,-34,nt,nt,1,1,
COc1cc(/C=C/C(=O)O)cc(S(=O)(=O)Nc2ccc(S(=O)(=O)N3CCCCC3)cc2)c1OC,18,nt,nt,-5,nt,nt,-6,1,
CCN(CC)c1c(C)nc2ccc(C(=O)Nc3cc(-c4ccccc4)ccc3OC)cn12,17,nt,nt,1,nt,nt,0,-2,
COc1ccc(C)cc1-n1nnnc1SCC(=O)NC1CCCC1,-3,nt,nt,-13,nt,nt,10,-1,
COC(CNC(=O)c1ccc(N2CCCC2=O)cc1)OC,-177,i,nt,nt,-9,-2,0,2,
COc1ccccc1CNC(=O)COC(=O)/C=C/c1ccc2ccccc2n1,-27,nt,11,-3,nt,nt,-3,-5,
CC1=CC(C/C(C)=C/COc2ccc3ccc(=O)oc3c2)OC1=O (centres undefined),nt,i,-5,-2,-3,12,1,-14,
CC1CCC(NC(=O)C2CCN(c3nc4ccccc4s3)CC2)CC1 (centres undefined),12,i,-12,-6,-1,-14,-1,-18,
CC1(C(=O)Nc2cnc3ccccc3c2)CCN1C(=O)CCc1ccccc1 (centres undefined),34,nt,nt,-7,nt,nt,4,0,
COC(=O)CSc1nnc(CNc2ccc(Cl)cc2)n1Cc1ccccc1,nt,i,27,-16,0,-1,8,-1,
Cc1ccc(C(=O)Nc2cnc3ccccn3c2=O)cc1,-44,i,nt,-25,-8,0,10,8,
Cc1cc(C)c(S(=O)(=O)c2ccc(F)cc2C)c(=O)[nH]1,10,i,7,-12,0,-11,1,1,
CCCc1nnc(SCc2ccc(OCC)cc2)n1N,nt,i,nt,-22,-2,10,1,3,
COc1ccc2c(c1)OC[C@H]1[C@H]2N2C(=O)CN(Cc3ccc(C)cc3)C(=O)[C@@]2(C)[C@H]1c1ccccc1,87*,nt,1,0,nt,nt,-6,-5,

# An excerpt of the results above:
SMILES,Env fusion inh,Rce1 inh,CSC inhib,Yeast UUG start,eIF4H FP inh,PABP FP inh,MT1-MMP act inh,MT1-MMP act inh RFP,others
CC1(C)CC2CC(C)(CN2C(=O)Cc2ccccc2)C1 (centres undefined),-37,nt,-13,-18,-4,-2,0,-2,
Fc1ccccc1Nc1nc(-c2ccncc2)nc2ccccc12,31,nt,10,nt,-6,13,-1,-3,
O=C(NNC(=S)NC(=O)c1ccccc1[N+](=O)[O-])c1ccc(Cl)cc1Cl,-11,i,-16,nt,8,1,8,4,
O=C(NNc1c(Cl)cc(Cl)cc1Cl)c1cccc([N+](=O)[O-])c1,nt,i,21,-34,8,-2,2,-4,
Cc1ccc(N=CC2=C(O)CC(C)(C)CC2=O)nc1,nt,i,6,7,-4,-5,4,4,
CCOC(=O)c1sc(/N=C/c2c(O)ccc3ccccc23)cc1C,20,i,-6,nt,12,9,-5,0,
CCCNC(=O)c1cc(C2CCCCN2S(=O)(=O)c2ccccc2)on1 (centres undefined),-8,nt,nt,-34,nt,nt,1,1,

# (next part)
SMILES,Env fusion inh,Rce1 inh,CSC inhib,Yeast UUG start,eIF4H FP inh,PABP FP inh,MT1-MMP act inh,MT1-MMP act inh RFP,others
COc1ccc(N2C(=O)CCC(C(=O)NCc3cccnc3)C2c2ccc(OC)c(OC)c2)cc1 (centres undefined),-118,i,-12,-19,-6,1,5,6,
O=C(OCC(=O)N1CCOCC1)c1ccc(Cl)cc1[N+](=O)[O-],4,i,12,-18,2,8,0,4,
Cc1nnc(SCCOc2ccccc2)s1,-14,i,10,nt,-1,-1,1,2,
Cc1cc(C)n(CCOc2ccc(Br)cc2)n1,8,i,-13,-12,-7,-13,-1,2,
COc1cccc(NC2CC(=O)N(CCc3ccccc3)C2=O)c1 (centres undefined),nt,i,8,3,-4,1,-2,3,
COc1ccccc1CNC(=O)CSc1cc(=O)n(C)c2ccccc12,4,i,-16,nt,-1,-2,4,2,
O=C(c1sccc1-n1cccc1)N1CCCC1,nt,i,-4,-6,1,-5,1,3,
O=C(C(F)C(F)(F)F)N1CCN(c2ccccc2)CC1 (centres undefined),nt,i,-1,-31,6,-4,5,2,
CC1=CC(C)C(CN(CCC[N+](C)(C)C)C(=O)Nc2ccccc2)C(C)C1 (centres undefined),10,i,-12,nt,nt,nt,-5,0,
O=C(CCSCc1ccc(Cl)cc1)NC1CCCC1,13,i,-7,nt,1,-12,1,2,
Cc1ccccc1N1CCN(C2=NC(=O)/C(=C\c3cccs3)S2)CC1,-1,i,63,nt,-1,-4,-3,-2,
CC(C(=O)NCC1CCCO1)c1ccc([N+](=O)[O-])cc1 (centres undefined),-5,i,-2,nt,-6,11,1,-4,
CCOc1ccc(C(=O)N[C@H](C(=O)Nc2cccc(S(=O)(=O)N3CCCCC3)c2)C(C)C)cc1,-38,i,7,-18,-7,2,-58,-40,
COC(=O)c1ccccc1S(=O)(=O)N1CCC(C(=O)OCC(=O)NCC(F)(F)F)CC1,3,i,5,-4,-9,8,3,7,
Fc1ccccc1-c1nc2nc3ccccc3nc2n1CC1CCCO1 (centres undefined),-13,i,-2,-3,-2,10,-1,-2,
CSc1ccccc1C(=O)NCCSc1ccccc1,nt,i,4,-11,-2,-20,4,3,
CC1=C(C(=O)OCc2ccccc2)C(c2ccc(Br)cc2)NC(=O)N1CCCCCC(=O)O (centres undefined),-39,i,-5,-17,nt,nt,9,1,
